# ID4 SMM: binds human ID4 protein on microarray. P47928. small molecule microarray, Flag-ID4 binding, fluorescence F/B. calls only. 1.2% of 31,000 active. AID 624137;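 active = spot signal over background at p below 0.07 in all four prints; compounds were printed on slides so no solution concentration is given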;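 note: a binder raises fluorescence above local background on the spot; about 2 pmol printed per array spot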
# Target sequence (P47928 whole entry, looked up): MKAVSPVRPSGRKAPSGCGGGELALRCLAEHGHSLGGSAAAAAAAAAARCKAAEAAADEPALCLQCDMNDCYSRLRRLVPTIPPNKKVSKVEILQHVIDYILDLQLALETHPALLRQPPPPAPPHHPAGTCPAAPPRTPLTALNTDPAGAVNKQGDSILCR
# Calls only; i = inactive.
SMILES,ID4 SMM
COC(=O)C[C@H]1C(C)(C)C(=O)[C@@H]2CC3=C4CC(=O)O[C@@H](c5ccoc5)[C@]4(C)CCC3[C@@]1(C)C2=O (some centres undefined),i
COc1cc(C)c2c(c1C=O)Oc1c(c(C)c(O)c3c1C(O)OC3=O)OC2=O (centres undefined),i
C[C@@H]1CN([C@@H](C)CO)C(=O)c2cc(-c3ccccc3F)cnc2O[C@@H]1CN(C)Cc1ccccc1,i
CC(C)(C)c1nc2scc(-c3ccc(Cl)cc3)n2n1,i
C[C@H](O)C#Cc1cnc2c(c1)C(=O)N([C@H](C)CO)C[C@H](C)[C@@H](CN(C)CC1CCCCC1)O2,i
C[C@@H]1CN([C@@H](C)CO)C(=O)c2cc(-c3ccc(C#N)cc3)cnc2O[C@@H]1CN(C)C(=O)CC1CC1,i
O=C(C[C@@H]1C=C[C@@H](NC(=O)c2cccc(F)c2)[C@@H](CO)O1)Nc1nccs1,i
CC(C)CC#Cc1cnc2c(c1)C(=O)N([C@@H](C)CO)C[C@@H](C)[C@@H](CN(C)Cc1ccccc1F)O2,i
COc1ccc(CN(C)C[C@H]2Oc3ccc(N(C)C)cc3CC(=O)N([C@@H](C)CO)C[C@@H]2C)cc1,i
CCOc1cc(C)c(S(=O)(=O)NCc2cccnc2)cc1C,i
CS(=O)CCC(NS(=O)(=O)c1ccccc1)C(=O)O (centres undefined),i
CC(C)C#Cc1ccc2c(c1)O[C@@H](CN(C)CC1CC1)[C@@H](C)CN([C@H](C)CO)S2(=O)=O,i
C[C@H]1CN([C@@H](C)CO)C(=O)c2cc(C#CCc3ccccc3)cnc2O[C@H]1CN(C)C(=O)C1CC1,i
COc1ccccc1C#Cc1ccc2c(c1)O[C@@H](CN(C)C)[C@@H](C)CN([C@@H](C)CO)S2(=O)=O,i
COc1cc(NC(=O)CN(C)S(=O)(=O)c2ccc3ccccc3c2)cc(OC)c1,i
C=CCn1c(SCc2csc(C)n2)nc2sc(C)c(C)c2c1=O,i
O=C(NCc1ccco1)C1CCCN(S(=O)(=O)c2ccccc2)C1 (centres undefined),i
CCOc1cc(C2c3c(oc4ccc(F)cc4c3=O)C(=O)N2CCc2ccc(OC)cc2)ccc1O (centres undefined),i
O=C(CSc1nc2ccccc2c(=O)n1-c1ccc(Cl)cc1)Nc1ccc(Cl)cc1Cl,i
COCC(=O)N(C)C[C@@H]1Oc2ncc(C#Cc3ccc(OC)cc3)cc2C(=O)N([C@H](C)CO)C[C@@H]1C,i
O=C1CC2(CCCC2)CC(=O)N1CCCCN1CCN(c2ncccn2)CC1,i
CCOC(=O)c1c(NC(=O)c2ccc(-c3ccccc3[N+](=O)[O-])o2)sc2c1CCCC2,i
COCC(=O)Nc1ccc2c(c1)[C@H]1C[C@@H](CC(=O)N(C)C)O[C@H](CO)[C@H]1O2,i
CC(=O)c1cccc(NC(=O)CSC2=NCCS2)c1,i
C[C@H]1CN([C@@H](C)CO)C(=O)c2cc(C3=CCCCC3)cnc2O[C@@H]1CN(C)Cc1ccncc1,i
CC(C)NC(=O)N[C@H]1C=C[C@H](CC(=O)NCc2ccc(Oc3ccccc3)cc2)O[C@@H]1CO,i
CCc1ccc(-n2c(SCC(=O)Nc3ccc(F)cc3)nnc2-c2ccncc2)cc1,i
O=C(O)CCc1ccc(-c2ccc(Cl)cc2)n1-c1ccc(C(=O)O)cc1,i
O=C(COc1ccccc1)NC(=S)Nc1cccc(NC(=O)c2ccccc2Cl)c1,i
O=C1COc2ccc(S(=O)(=O)NCCOc3ccccc3)cc2N1,i

# 2 compounds picked at random from those above, as already listed:
SMILES,ID4 SMM
O=C(CSc1nc2ccccc2c(=O)n1-c1ccc(Cl)cc1)Nc1ccc(Cl)cc1Cl,i
O=C1CC2(CCCC2)CC(=O)N1CCCCN1CCN(c2ncccn2)CC1,i

# Given field by field: entries from further up.
> C[C@@H]1CN([C@@H](C)CO)C(=O)c2cc(-c3ccc(C#N)cc3)cnc2O[C@@H]1CN(C)C(=O)CC1CC1
  ID4 SMM: i

> O=C(C[C@@H]1C=C[C@@H](NC(=O)c2cccc(F)c2)[C@@H](CO)O1)Nc1nccs1
  ID4 SMM: i

> CC(C)CC#Cc1cnc2c(c1)C(=O)N([C@@H](C)CO)C[C@@H](C)[C@@H](CN(C)Cc1ccccc1F)O2
  ID4 SMM: i

> COc1ccc(CN(C)C[C@H]2Oc3ccc(N(C)C)cc3CC(=O)N([C@@H](C)CO)C[C@@H]2C)cc1
  ID4 SMM: i

# Next part
SMILES,ID4 SMM
O=C(COc1ccccc1[N+](=O)[O-])Nc1cc(Cl)ccc1C(=O)O,i
Cc1ccc2nsnc2c1NC(=O)COc1ccc([N+](=O)[O-])cc1,i
COc1ccc(S(=O)(=O)N(C)CC(=O)Nc2cccc(C(F)(F)F)c2)cc1OC,i
COc1cccc(NC(=O)CSc2nnc(-c3ccccc3)n2-c2ccc(F)cc2)c1,i
O=[N+]([O-])c1ccc(NCCNS(=O)(=O)c2ccc(Cl)cc2)cc1,i
COC(=O)[C@]1(Cc2ccccc2N=[N+]=[N-])N=C(c2ccc(OCCCO)cc2)O[C@@H]1c1ccccc1,i
C[C@H](CO)N1C[C@H](C)[C@H](CN(C)CC2CCCC2)OCc2cnnn2CCCC1=O,i
COc1ccccc1CNC(=O)C[C@@H]1C[C@@H]2c3cc(NC(=O)Cc4ccncc4)ccc3O[C@@H]2[C@@H](CO)O1,i
O=C(C[C@H]1C[C@@H]2c3cc(NC(=O)C4CCOCC4)ccc3O[C@@H]2[C@@H](CO)O1)NCCc1ccccc1,i
CCCN(C)C[C@H]1Oc2cc(C#CC3CCCCC3)ccc2S(=O)(=O)N([C@H](C)CO)C[C@@H]1C,i
CC(=O)N[C@H]1CC[C@@H](CC(=O)NCc2ccc(Cl)cc2)O[C@@H]1CO,i
NC(=O)c1ccc(NCc2cccnc2)c([N+](=O)[O-])c1,i
C[C@@H]1CN([C@@H](C)CO)C(=O)c2cc(-c3ccc(F)cc3)cnc2O[C@@H]1CN(C)Cc1cccnc1,i
O=C(N[C@H]1CC[C@@H](CC(=O)N2CCOCC2)O[C@@H]1CO)c1cccc(F)c1,i
COc1ccc(/C=C2/SC(=S)NC2=O)cc1COc1ccc(F)cc1F,i
COc1cc(S(=O)(=O)NCc2cccnc2)ccc1Br,i
COc1ccc(OC)c(N(CC(=O)Nc2c(C)cc(C)cc2C)S(C)(=O)=O)c1,i
CO[C@@H]1CN(C)C(=O)c2ccc(NC(=O)c3ccc(F)cc3)cc2OC[C@@H](C)N(C)C[C@H]1C,i
CNC[C@@H]1Oc2ncc(C#CCC3CCCC3)cc2C(=O)N([C@H](C)CO)C[C@@H]1C,i
C[C@H]1CN([C@@H](C)CO)S(=O)(=O)c2ccc(-c3cccnc3)cc2O[C@@H]1CN(C)C(=O)NC1CCCCC1,i
CC(C)(Oc1ccc(CCNC(=O)c2ccc(Cl)cc2)cc1)C(=O)O,i
COC(=O)C(C)N(C#N)c1nc(C)nc(C)n1 (centres undefined),i
Cc1nc(C)n(CC(O)COc2ccc3c(c2)CCC3)n1 (centres undefined),i
COC(=O)/C=C/c1ccc(OC)c(/C=C/C(C)(C)O)c1,i
O=C(NCCCN1CCOCC1)c1cc2cc([N+](=O)[O-])ccc2oc1=O,i
COc1ccc(Cl)cc1NC(=S)NCc1ccco1,i
C[C@H](CO)N1C[C@H](C)[C@@H](CN(C)Cc2cccc(C(=O)O)c2)Oc2cc(C3=CCCC3)ccc2S1(=O)=O,i
O=C(NC1CCCCC1)c1ccc(COCC(F)(F)F)o1,i
COc1ccc(C#Cc2ccc3c(c2)O[C@@H](CN(C)C)[C@H](C)CN([C@@H](C)CO)S3(=O)=O)cc1,i
Cc1ccc(S(=O)(=O)NC(C)(C)CSc2ccccn2)cc1,i
C[C@@H]1CN([C@H](C)CO)C(=O)c2cccc(NC(=O)C3CCCCC3)c2O[C@@H]1CN(C)C,i
COc1cc(CO)cc(Cl)c1OCc1cccc(C(=O)O)c1,i
O=C(Cc1ccccc1)N[C@H]1C=C[C@@H](CC(=O)N2CCCCC2)O[C@H]1CO,i
C[C@@H]1CN([C@H](C)CO)C(=O)c2cc(-c3ccccc3F)cnc2O[C@@H]1CN(C)C(=O)C1CC1,i
CN(Cc1nc(-c2ccccn2)no1)S(=O)(=O)c1ccc(Br)cc1,i
CSc1ccc2c(c1)C(N1CCN(C)CC1)Cc1ccccc1S2 (centres undefined),i
C[C@@H]1CN([C@@H](C)CO)C(=O)c2cc(Br)cnc2O[C@H]1CN(C)Cc1cccc(F)c1,i
O=C(CSc1nnnn1-c1ccc(F)cc1)c1ccc(O)c(O)c1,i
C[C@@H]1CN([C@@H](C)CO)S(=O)(=O)c2ccc(-c3ccccc3F)cc2O[C@H]1CN(C)C,i
CCOC(=O)c1sc2ncn(CC(=O)Nc3ccc(C(C)=O)cc3)c(=O)c2c1C,i
O=C(CN1C(=O)c2ccccc2S1(=O)=O)Nc1cccc(Br)c1,i
Cn1c(=S)n(CCSc2nc3ccccc3n2-c2ccccc2)c2ccccc21,i
C[C@H](CO)N1C[C@H](C)[C@H](CN(C)CC2CC2)Oc2ccc(NC(=O)C3CC3)cc2CC1=O,i
CCCN(C)C[C@H]1Oc2cc(-c3ccncc3)ccc2S(=O)(=O)N([C@H](C)CO)C[C@H]1C,i
COCC#Cc1ccc2c(c1)O[C@@H](CN(C)C(=O)c1ccccc1F)[C@H](C)CN([C@@H](C)CO)S2(=O)=O,i

# Already shown: entries from further up.
SMILES,ID4 SMM
C[C@H](CO)N1C[C@H](C)[C@H](CN(C)CC2CC2)Oc2ccc(NC(=O)C3CC3)cc2CC1=O,i
CCCN(C)C[C@H]1Oc2cc(-c3ccncc3)ccc2S(=O)(=O)N([C@H](C)CO)C[C@H]1C,i
COCC#Cc1ccc2c(c1)O[C@@H](CN(C)C(=O)c1ccccc1F)[C@H](C)CN([C@@H](C)CO)S2(=O)=O,i

# Further entries follow:
SMILES,ID4 SMM
CCOC(=O)c1c(C2COc3ccccc3O2)csc1NC(=S)Nc1ccccc1 (centres undefined),i
COc1cccc(NC(=O)CN(c2ccc(C)cc2C)S(C)(=O)=O)c1,i
CC(C)(C)[C@]1(O)CCN2C[C@H]3c4ccccc4CCc4cccc(c43)[C@@H]2C1,i
C/C=C/c1ccc(OCCCSc2nc(C)cc(=O)[nH]2)c(OC)c1,i
O=C(Cn1c(NCCO)nc2ccccc21)c1cccc([N+](=O)[O-])c1,i
COc1cc(NC(=O)COc2ccc(C)c(C)c2)ccc1NC(=O)c1ccccc1Cl,i
CCN(CC(=O)Nc1ccc2c(c1)OCCO2)S(=O)(=O)c1ccc2ccccc2c1,i
O=C(Nc1ccc2c(c1)OCO2)N[C@H]1C=C[C@H](CC(=O)N2CCN(c3ccccc3)CC2)O[C@H]1CO,i
CCN(CC(=O)Nc1ccccc1)S(=O)(=O)c1ccc(C)cc1,i
CN(c1cccc(NC(=O)c2ccccc2N(C)S(C)(=O)=O)c1)S(C)(=O)=O,i
CNC[C@@H]1Oc2cc(-c3ccccc3F)ccc2S(=O)(=O)N([C@@H](C)CO)C[C@H]1C,i
COC(=O)c1ccccc1NC(=O)C1=C(C)NC(=S)NC1c1cc(Cl)cc(OC)c1OC(C)C (centres undefined),i
CS(=O)(=O)Nc1ccc([N+](=O)[O-])cc1Oc1ccccc1,i
Cc1cccc(-c2nnc(SCC(=O)Nc3c(F)cc(F)cc3Br)n2C)c1,i
Cc1ccc(-c2nnc(SCC(=O)c3ccccc3)n2-c2ccccc2)cc1Cl,i
C=CCN(CC=C)C(=O)Cc1ccc(Br)cc1,i
C[C@H](CO)N1C[C@H](C)[C@@H](CN(C)C)Oc2ncc(C#CC3(O)CCCC3)cc2C1=O,i
COc1ccc(S(=O)(=O)N(C)CC(=O)Nc2ccc(C(N)=O)cc2)cc1,i
O=C(Cc1ccccc1)N[C@H]1CC[C@H](CC(=O)N2CCOCC2)O[C@H]1CO,i
O=C(C[C@H]1CC[C@H](NC(=O)c2cccc(F)c2)[C@@H](CO)O1)NCc1ccc(Oc2ccccc2)cc1,i
O=C(Cn1cc(C(=O)c2ccco2)c2ccccc21)Nc1ccccc1C(F)(F)F,i
C[C@H](O)C#Cc1ccc2c(c1)O[C@H](CN(C)C(=O)c1ccccc1)[C@H](C)CN([C@H](C)CO)S2(=O)=O,i
CCCNC(=O)N(C)C[C@H]1Oc2ncc(Br)cc2C(=O)N([C@H](C)CO)C[C@H]1C,i
CC(Sc1nc(N)cc(=O)[nH]1)C(=O)Nc1ccc(Cl)cc1 (centres undefined),i
CN(C)C(=O)C[C@H]1CC[C@@H](NC(=O)Nc2cccc(F)c2)[C@@H](CO)O1,i
CC(=O)c1cccc(N(CC(=O)Nc2ccc(F)cc2F)S(C)(=O)=O)c1,i
COc1ccc(NC(=O)C2CCCCC2C(=O)O)cc1 (centres undefined),i
CCOC(=O)C1CCCN(C(=O)c2c[nH]n3c(=O)c(Cc4ccc(Cl)cc4)c(C)nc23)C1 (centres undefined),i
C[C@@H]1CN([C@H](C)CO)C(=O)c2cccc(N(C)C)c2O[C@@H]1CN(C)C(=O)Nc1ccc(F)cc1,i
Cn1c(SCc2nc3ccccc3[nH]2)nnc1-c1cnccn1,i
CS(=O)(=O)N(CC(=O)Nc1cc(Cl)ccc1Cl)c1cccc2ccccc12,i
O=C(Nc1ccc2c(c1)[C@H]1C[C@@H](CC(=O)N3CCOCC3)O[C@H](CO)[C@H]1O2)c1ccc2c(c1)OCO2,i
O=C(CSc1nnnn1-c1ccc(Cl)cc1)Nc1cccc2ccccc12,i
CCC(C)N(C)C(=O)c1cc2ccccc2c(-c2ccccc2Cl)n1 (centres undefined),i
CCC(=O)N[C@@H]1C=C[C@@H](CC(=O)NCc2ccccc2OC)O[C@@H]1CO,i
COCCc1ccc(OCC(O)CNC(C)C)cc1 (centres undefined),i
Cc1ccc(S(=O)(=O)NC(C)C(=O)Nc2cc([N+](=O)[O-])ccc2C)cc1 (centres undefined),i
CCNC(=O)C[C@@H]1C=C[C@H](NC(=O)C2CC2)[C@H](CO)O1,i

# The list is partial. The share of hits here may be higher or lower than overall.
